HPGD block: blocks human HPGD enzyme activity; P15428; purified HPGD, NADH fluorescence kinetic, PGE2 substrate; Potency, µM, without a hit: top-dose activity change, negative = inhibition, hits mostly inhibitors; 4.3% of 150,000 active; active = well fitted inhibition curve with a large enough effect (not every such curve was filed as active); inconclusive = small, poorly fitted or top-dose-only effect, or another doubt; inactive = no such curve, though single readings can be large or run the other way;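 further: top concentration of the series not given in the record; plate controls included wells without enzyme; inactives centre near -10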
Target sequence (P15428 whole entry, looked up): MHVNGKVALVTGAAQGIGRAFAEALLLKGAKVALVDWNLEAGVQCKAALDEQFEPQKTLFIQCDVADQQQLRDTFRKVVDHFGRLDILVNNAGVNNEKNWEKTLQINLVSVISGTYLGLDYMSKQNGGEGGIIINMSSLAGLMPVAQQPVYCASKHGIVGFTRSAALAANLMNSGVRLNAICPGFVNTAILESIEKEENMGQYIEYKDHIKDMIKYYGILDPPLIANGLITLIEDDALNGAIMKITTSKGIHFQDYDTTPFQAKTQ
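NADH formation kinetics: reaction with 30 uM PGE2 and 1 mM NAD+ (final), 20 nM enzyme, Tris-HCl pH 8 with Tween 20, after 15 min compound preincubation at room temperature. Fluorescence change, last versus first of five reads.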
Starred values were filed as active, the others as inactive; ? = inconclusive; & = joins results of further samples. On the % scale 0 is the no-effect control and ±100 the full control effect; potency means the concentration at half of the fitted maximal effect. These rows are one share of the data (hit frequency here may not be typical).

COc1ccc(NC(=O)CCN2C(=O)c3ccc([N+](=O)[O-])cc3C2=O)c(OC)c1
  HPGD block: -17%
Cc1cc(N/N=C/c2ccc(O)cc2O)nc(-c2ccccc2O)n1
  HPGD block: -17%
COc1ccc(CNC(=O)CCc2nc(-c3ccccc3F)no2)c(OC)c1
  HPGD block: -10%
N#Cc1ccc(CN2CCC3(CCNCC3)CC2)cc1
  HPGD block: -3%
O=S(=O)(c1ccc2c(c1)OCCO2)N1CCC(n2nnc3cc(C(F)(F)F)ccc32)CC1
  HPGD block: -10%
O=C1c2ccccc2C(=O)N1CCCOc1ccccc1
  HPGD block: 3%
COc1ccc(OC)c2c(C)cc(N3CCN(C(=O)c4ccc(F)cc4)CC3)nc12
  HPGD block: -24%
COc1ccc(C2CC(C(F)(F)F)n3nc(C(=O)O)cc3N2)cc1OC (centres undefined)
  HPGD block: 3%
CCOCC(=O)Nc1c(C(=O)OCC)oc2ccccc12
  HPGD block: -19%
CSc1ccccc1NC(=S)Nc1cc(C)cc(C)c1
  HPGD block: -7%
Cc1c(Cl)cccc1NC(=S)NCCN1CCOCC1
  HPGD block: -5%
Cc1ccc(C(C)n2cc(C(=O)NCc3ccncc3)nn2)cc1 (centres undefined)
  HPGD block: -2%
CCCCCC/C(=N/O)c1ccccn1
  HPGD block: -12%
CC(Oc1ccccc1)C(=O)OCC(=O)NC(=O)NCc1ccco1 (centres undefined)
  HPGD block: -5%
Cc1cc(C)c2nc(N3CCCC(C(=O)N4CCC(C(N)=O)CC4)C3)sc2c1 (centres undefined)
  HPGD block: -9%

COc1ccc(C(=O)C2CCN(S(=O)(=O)c3ccc4c(c3)OCCO4)CC2)cc1
  HPGD block: -14%
Nc1ccn(-c2ccccc2)c(=O)c1
  HPGD block: 1%
CCn1c(-c2csc(C(C)C)c2)n[nH]c1=S
  HPGD block: ?
CN(C)c1nc(N)nc(CSc2nnnn2-c2ccccc2)n1
  HPGD block: ?
CCCCC(CC)CNC(=O)CCS(=O)(=O)c1cccc2nsnc12 (centres undefined)
  HPGD block: -8%
CC1CCN(Cc2ccc(NC(=O)CC3Oc4ccccc4NC3=O)cc2)CC1 (centres undefined)
  HPGD block: -16%
CN(C(=O)c1ccc(C#N)cc1)c1nnc(-c2ccccn2)s1
  HPGD block: ?
Cc1ccc(OCc2ccc(C(=O)N3CCOCC3)cc2)cc1C
  HPGD block: 25µM*
Oc1ccc(/C=N/n2cnn(Cc3ccccc3Cl)c2=S)c(O)c1
  HPGD block: 20µM*
CC1(C(=O)NCc2cccnc2)CCC(=O)N1CCc1ccccc1 (centres undefined)
  HPGD block: -4%
COc1ccc(/C=C/C(=O)NC(=S)NNC(=O)c2cccnc2)cc1OC
  HPGD block: 32µM*
CCCCCC(=O)Nc1ccc(Cc2ccncc2)cc1
  HPGD block: ?
COC(=O)c1ccc(CSc2n[nH]c(=S)s2)o1
  HPGD block: ?
C[C@@H]1CC[C@]2(C(=O)O)CC[C@]3(C)C(=CCC4[C@@]5(C)C[C@@H](O)[C@H](O)[C@@](C)(CO)C5[C@H](O)C[C@]43C)C2[C@H]1C (some centres undefined)
  HPGD block: -7%
CSc1ncccc1C(=O)OCC(=O)N(C)C1CCS(=O)(=O)C1 (centres undefined)
  HPGD block: -2%

Nc1nc(N)nc(-c2ccccc2)n1
  HPGD block: -11%
CCOc1ccc(C2Nc3ccc4ccccc4c3-c3c2c(=O)oc2ccccc32)cc1 (centres undefined)
  HPGD block: ?
COc1ccc(N2CCN(C(=O)C(C)(C)Oc3ccc(Cl)cc3)CC2)cc1
  HPGD block: -14%
CCC(C)NC(=O)C1CC(c2cccc(OC)c2)=NO1 (centres undefined)
  HPGD block: -12%
CCS(=O)(=O)N1Cc2ccccc2CC1C(=O)OCC(=O)Nc1ccc(SC(F)F)cc1 (centres undefined)
  HPGD block: -18%
CCCCNC(=O)c1ccc(CS(=O)(=O)c2cccc(C(F)(F)F)c2)o1
  HPGD block: 2%
Cc1ccc(NC(=O)CC(C(=O)O)c2ccccc2)cc1 (centres undefined)
  HPGD block: -6%
O=C(NNC(=O)c1ccncc1)c1ccncc1
  HPGD block: 2%&-17%
Cc1ccc(OCCNC(=O)c2ccco2)cc1C
  HPGD block: ?
COc1ccc(C2CC(C(F)(F)F)n3nc(C(=O)Nc4ccc5c(c4)OCO5)cc3N2)cc1 (centres undefined)
  HPGD block: -17%
O=C(Cc1ccccc1)Nc1ccccc1C(=O)Nc1ccccc1
  HPGD block: ?
O=C(N/N=C/C=C/c1ccco1)c1cccnc1
  HPGD block: -18%
CCc1c(C)[nH]n(-c2nc(-c3cccc([N+](=O)[O-])c3)cs2)c1=O
  HPGD block: -17%
O=[N+]([O-])c1ccc(-c2cn(-c3ccccc3)c(=S)[nH]2)cc1
  HPGD block: -10%
COC(=O)C1=C(C)OC(N)=C(C#N)C1C1CCCCC1 (centres undefined)
  HPGD block: -12%

COc1ccc(NC(=O)C2CCCN2C(=O)NC2CCCCC2)cc1OC (centres undefined)
  HPGD block: -12%
Cn1c(COc2ccc(Cl)cc2)nc2ccccc2c1=O
  HPGD block: -11%
CC(C)c1nnc(NC(=O)CSc2nc3ccccc3s2)s1
  HPGD block: -22%
CCN(CC)C(=O)c1sc(NC(=O)c2cccc([N+](=O)[O-])c2)c(C#N)c1C
  HPGD block: 7.1µM*
Cc1ccc(N(Cc2cc(=O)[nH]c3ccccc23)C(=O)c2ccco2)cc1
  HPGD block: -22%
O=C(c1ccccc1)c1nn(-c2ccccc2)c(=O)cc1C(F)(F)F
  HPGD block: ?
COn1cnnc1-c1ccccc1
  HPGD block: -7%
CCOC(=O)c1c(C)nc2ncccn12
  HPGD block: ?
Cc1ccc(NC(=O)c2nnn(CC(=O)Nc3ccccc3)c2N)cc1C
  HPGD block: -4%
Nc1nc(CSc2nc3ccccc3[nH]2)cs1
  HPGD block: ?
Cc1sc(NC(=O)c2ccco2)c(CN2CCN(c3ccccc3)CC2)c1C
  HPGD block: ?
CCn1cc(Cl)c(C(=O)N2N=C3/C(=C/c4cccs4)CCCC3C2c2cccs2)n1 (centres undefined)
  HPGD block: ?
O=C1C2C3C=CC(C3=C3CCCCC3)C2C(=O)N1c1ccccc1 (centres undefined)
  HPGD block: -2%
CN(C)/C=C/C(=O)c1ccc(N2CCN(c3ncc(C(F)(F)F)cc3Cl)CC2)cc1
  HPGD block: ?
CCC(C)NC(=O)c1ccccc1C(=O)NC(C)CC (centres undefined)
  HPGD block: 1%

Cc1ccc(N2C(=O)CC(NNc3nc4ccccc4s3)C2=O)cc1 (centres undefined)
  HPGD block: -10%
CCc1nc2ccc(F)cc2c(C(=O)NC2CCCCC2C)c1C (centres undefined)
  HPGD block: -8%
CCC(C)C(=O)Nc1cc(C(=O)OC)ccc1C(=O)OC (centres undefined)
  HPGD block: -22%
CCOc1ccc(S(=O)(=O)Nc2ccc(F)cc2)c(C)c1C
  HPGD block: -22%
CC(C(=O)Nc1ccccc1-c1ccccc1)N1CCN(S(=O)(=O)c2ccccc2)CC1 (centres undefined)
  HPGD block: -10%
CC(=O)C1=NN(c2ccccc2)C(c2ccc3c(c2)OCO3)N1c1ccc(N2CCOCC2)cc1 (centres undefined)
  HPGD block: -14%
COc1ccc(N2C=C3C(=O)C(C)(OC(=O)C4CCCC4)C(=O)C=C3C=C2c2ccsc2)cc1 (centres undefined)
  HPGD block: -17%
CCCCc1ccc(CC(=O)O)cc1
  HPGD block: 32µM*
COc1ccc(-c2nnc(N3CCCCC3)c3ccccc23)cc1
  HPGD block: -16%
Cc1onc(-c2ccccc2)c1C(=O)NC(C)C
  HPGD block: -2%
CC(=O)c1c(N2CCN(c3ccc(F)cc3)CC2)nc(=S)n(Cc2ccccc2)c1C
  HPGD block: -12%
COc1ccc(-c2cc(N)n(S(=O)(=O)Cc3ccccc3)n2)c(OC)c1
  HPGD block: -5%
COc1ccc(OC)c(S(=O)(=O)N2CCCCC2C(=O)O)c1 (centres undefined)
  HPGD block: -4%
c1ccc(COc2ccc(-c3csnn3)cc2)cc1
  HPGD block: -3%
O=C(NCC(c1ccco1)N1CCCC1)c1ccc(Cl)cc1 (centres undefined)
  HPGD block: -11%

CCOC(=O)N1CCC(c2[nH][nH]c(=O)c2C)CC1
  HPGD block: -7%
C=CCn1c(=O)[nH]c2cc(C(=O)N3CCN(c4cc(C)ccc4C)CC3)ccc2c1=O
  HPGD block: -1%
COc1ccc(-c2[nH]ncc2-c2cnn(-c3ccccc3)c2)c(O)c1
  HPGD block: -19%
N/C(=N\OC(=O)COc1ccc(Cl)cc1)c1ccc(Cl)cc1
  HPGD block: -4%
O=C(CNc1ccccc1)N/N=C/c1ccc2c(c1)OCO2
  HPGD block: -15%
Cc1nnc(SCC(=O)NCC2CCCO2)n1-c1ccccc1 (centres undefined)
  HPGD block: -19%
CC1=C(C(=O)Nc2ccccc2C)C2(CCCC2)C(C(N)=O)C(=O)N1 (centres undefined)
  HPGD block: -12%
COC(=O)CCCC1=CC2=CC(=O)C(C)(OC(=O)c3cccs3)C(=O)C2=CN1Cc1ccc2c(c1)OCO2 (centres undefined)
  HPGD block: -16%
CC(C)N(C)C1CCN(C(=O)Nc2ccc(Cl)cc2)CC1
  HPGD block: -1%
Cc1cc(C)n(C(=O)CNC(=O)c2ccc3c(c2)OCCO3)n1
  HPGD block: -12%
COc1ccccc1OCC(=O)N(Cc1nc(-c2ccccc2)no1)C1CCCCC1
  HPGD block: -15%
CC(C)(C)Nc1oc(-c2ccccc2)nc1-c1cccc2ccccc12
  HPGD block: -8%
CC(C)[C@@H](CC(=O)N[C@@H]1CCCC[C@H]1C(=O)N[C@H](CC(=O)N[C@@H](CCC(=O)O)CC(=O)O)Cc1c[nH]c2ccccc12)NC(=O)C[C@H](Cc1ccccc1)NC(=O)[C@@H]1CCCC[C@H]1N
  HPGD block: -10%
CCOC(=O)C1CCN(CC(=O)Nc2c(C(=O)OC)n(C)c3cccc(C)c23)CC1
  HPGD block: -6%
CC1=C(C#N)C(NC(=O)C(C)(C)C)(C(F)(F)F)C(=O)N1 (centres undefined)
  HPGD block: -1%

O=C(Nc1ccc(-c2cn3ccsc3n2)cc1)C1COc2ccccc2O1 (centres undefined)
  HPGD block: -9%
COc1cccc(OCc2nc3ccccc3[nH]2)c1
  HPGD block: -13%
S=c1[nH]nc(CSCc2ccccc2Cl)n1-c1ccccc1
  HPGD block: ?
CCCc1cc(=O)[nH]c(SCC(=O)c2cc(C)n(C(C)COC)c2C)n1 (centres undefined)
  HPGD block: -1%
Cc1ccc(C(=O)N2CCCC2)cc1S(=O)(=O)Nc1ccccc1
  HPGD block: 6%
CN1CCN(c2ncnc3c2cnn3-c2ccc(Cl)cc2)CC1
  HPGD block: -10%
O=C(Nc1cccc(F)c1)N1CC[C@@]2(CCCNC2)C1
  HPGD block: -10%
CCn1cc(CNC(=O)/C=C/c2cnn(C)c2)c(C)n1
  HPGD block: 1%
CC1(C)S[C@@H]2[C@H](NC(=O)COc3ccccc3)C(=O)N2[C@H]1C(=O)O (tested in a mixture with another compound)
  HPGD block: -11%
CSc1ccccc1NC(=O)CN(C)CC(=O)Nc1ccccc1F
  HPGD block: 1%
O=C(COc1ccc(-n2cnnn2)cc1)NC1CCCCC1
  HPGD block: -5%
CC(C)C(=O)Nc1ccccc1N1CCN(S(C)(=O)=O)CC1
  HPGD block: 1%
COC(=O)N1CCC2(CC1)CN(C(=O)Nc1ccc(OC)cc1)C2
  HPGD block: -2%
N#Cc1ccc(Oc2cccnc2)cc1C#N
  HPGD block: -11%
COC(C(=O)Nc1ccc(F)cc1F)c1ccccc1 (centres undefined)
  HPGD block: -2%

O=C(c1cccc(C(F)(F)F)c1)N1CCC(O)(CS(=O)(=O)Cc2ccccc2Cl)CC1
  HPGD block: -4%
COC(=O)c1ccc(C(=O)OC)c(NC(=O)COC(=O)C2CC2C)c1 (centres undefined)
  HPGD block: ?
COc1ccc(N(CC(=O)NCc2ccc3c(c2)OCO3)S(C)(=O)=O)cc1OC
  HPGD block: -7%
Nc1nc(Cl)c2ncn(C3OC(CO)C(O)C3O)c2n1 (centres undefined)
  HPGD block: -19%
Cc1sc2ccccc2[n+]1CCC(C)S(=O)(=O)[O-] (centres undefined)
  HPGD block: -16%
O=C(Cn1c(=O)oc2ccccc21)Nc1ccc(S(=O)(=O)N2CCCCC2)cc1
  HPGD block: -9%
Cn1cc([N+](=O)[O-])c(C(=O)Nc2ccn(C34CC5CC(CC(C5)C3)C4)n2)n1
  HPGD block: -10%
COc1ccc(OCc2cccc(C(=O)O)c2)cc1
  HPGD block: -7%
Cc1ccnc(NC(=O)c2c(-c3ccccc3Cl)noc2C)c1
  HPGD block: -6%
Cc1c(N2C(=O)C(=O)/C(=C(/O)c3ccccc3)C2c2ccc(F)cc2)c(=O)n(-c2ccccc2)n1C (centres undefined)
  HPGD block: -9%
CC1(C)C(=O)Nc2ccccc2N1C(=O)CSc1nnc2c(Cl)cc(Cl)cn12
  HPGD block: -17%
Cc1ccc(C)c2[nH]c(=O)c(C(c3nnnn3C(C)(C)C)N3CC=C(c4ccc(F)cc4)CC3)cc12 (centres undefined)
  HPGD block: -22%
Cc1occc1C(=O)N1CCN(c2ccc(Cl)c(Cl)c2)CC1
  HPGD block: -19%
O=C(CSc1nnc(-c2ccccc2Cl)n1Cc1ccco1)Nc1ccc2c(c1)OCCO2
  HPGD block: -13%
O=C(C(Cc1ccccc1)N1C(=O)C2C3C=CC(C3)C2C1=O)N1CCCCCC1 (centres undefined)
  HPGD block: 1%
O=C(COc1ccc2c(C(F)(F)F)cc(=O)oc2c1)Nc1ccc2c(c1)OCCO2
  HPGD block: -10%
COC(=O)c1cc(NC(=O)c2nccnc2C(=O)O)cc(C(=O)OC)c1
  HPGD block: -10%

Screening results as filed in PubChem BioAssay.
